Bioassay records deposited in PubChem BioAssay by several laboratories.
Arbovirus inh: blocks arbovirus infection; arbovirus infection cell-based antiviral screen; inhibition, % at 10 µM; 0.37% of 200,000 active;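 active = inhibition from about 30%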;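 also: bluetongue infection of BSR cells; cell survival read as ATP light after 72 h; 0% = infected wells without compound and 100% = uninfected wells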
Mtb bLac sens: beta-lactam sensitization of Mtb H37Rv; M. tuberculosis H37Rv growth with meropenem, percent inhibition; hits of this screen are not shown here; inhibition, % at 25 µM; 0.27% of 330,000 active;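 active = about 74% or more and at least 40 points above the plate without the antibiotic, then above 30% in a dose series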;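 also: growth measured after seven days incubation then overnight dye step; 0% = bacteria only wells and 100% = bacteria with antibiotic; twin plates without the antibiotic show which effects depend on it; some results filed as inactive read as strong as hits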
YopH PTP inh: YopH (Yersinia) phosphatase inhibition. 0.16% of 140,000 active. inhibition, %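 (about 10 µM by stock and volumes)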. fluorescence Ex485/Em525. AID 898;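 active = inhibition of 50% or more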;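 also: controls were vehicle for no effect and minimum signal wells for full effect; inactives centre near -20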
Mtb H37Rv: M. tuberculosis H37Rv growth inhibitors, H37Rv strain (AID 1626). inhibition, % at 10 µM; hits with a dose series show IC50 in µM. 0.95% of 220,000 active. M. tuberculosis H37Rv growth inhibition; higher % means a stronger effect;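 active = confirmed in a dose series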;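 also: bacteria incubated seven days before Alamar blue readout; 0% = bacteria only wells and 100% = bacteria with antibiotic wells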
RecA splice inh: blocks M. tuberculosis RecA intein splicing; inhibition, %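 (about 9 µM by stock and volumes)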; AID 2221; cell-free RecA intein splicing, fluorescence; P9WHJ3; 0.75% of 290,000 active; in the data active = inhibition above about 30%;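 also: 0% = vehicle wells and 100% = reference inhibitor control wells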
Target sequence (P9WHJ3 whole entry, looked up, canonical isoform): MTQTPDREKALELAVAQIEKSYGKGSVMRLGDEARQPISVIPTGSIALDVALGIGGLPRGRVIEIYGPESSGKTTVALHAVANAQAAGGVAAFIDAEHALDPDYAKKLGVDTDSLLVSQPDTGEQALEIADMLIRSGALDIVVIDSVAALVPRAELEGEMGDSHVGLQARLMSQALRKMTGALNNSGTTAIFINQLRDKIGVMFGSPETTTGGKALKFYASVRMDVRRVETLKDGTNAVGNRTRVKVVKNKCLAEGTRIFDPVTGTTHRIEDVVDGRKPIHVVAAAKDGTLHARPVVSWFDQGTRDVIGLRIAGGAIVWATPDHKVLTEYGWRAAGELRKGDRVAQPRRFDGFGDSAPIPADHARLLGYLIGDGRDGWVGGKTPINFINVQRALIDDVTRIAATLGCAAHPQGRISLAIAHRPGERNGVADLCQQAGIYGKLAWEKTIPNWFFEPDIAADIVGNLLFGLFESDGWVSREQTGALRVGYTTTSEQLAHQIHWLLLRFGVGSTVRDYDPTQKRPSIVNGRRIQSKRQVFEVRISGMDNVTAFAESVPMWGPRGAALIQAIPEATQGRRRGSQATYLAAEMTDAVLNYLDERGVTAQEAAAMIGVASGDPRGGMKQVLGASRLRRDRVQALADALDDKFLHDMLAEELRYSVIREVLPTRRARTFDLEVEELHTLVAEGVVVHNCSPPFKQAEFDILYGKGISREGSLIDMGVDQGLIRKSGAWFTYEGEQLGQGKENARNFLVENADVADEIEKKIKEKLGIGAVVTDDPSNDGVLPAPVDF
Arbovirus inh repeat: recorded beside Arbovirus inh, whose call it bears; inhibition, %; measured here: 10K subset replicate screen; many hits read low in the repeat;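 first of two repeat runs on a subset; 0% = infected and 100% = uninfected wells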
Starred values were filed as active, the others as inactive; · = no result given. Only part of the results is shown; rates above refer to the full screens.

SMILES | Arbovirus inh | Mtb bLac sens | YopH PTP inh | Mtb H37Rv | RecA splice inh | others
O=C(c1ccc(CN2CCOCC2)cc1)N1CCN(c2ccccc2)CC1 | 0 | 0 | -3 | 2% | -0.4
Cc1ccc(S(=O)(=O)c2nc(S(=O)(=O)c3ccc(C)cc3)c(NCc3ccco3)s2)cc1 | 5 | -9 | -47 | 3% | -0.7
Cc1cc(C)nc(NC(=O)NS(=O)(=O)N2CCCCCC2)n1 | -3 | -6 | -16 | 6% | -0.3
CO/N=C/CC(=O)Nc1ccc(F)cc1F | 0 | 5 | -22 | 2% | -0.4
CC1CC(=O)NN1C(=O)c1ccccc1 (stereo not drawn) | · | -12 | · | -2% | 4.8
CCc1nnc(NC(=O)Cc2ccc(OC)cc2)s1 | 1 | 0 | 0 | -7% | -0.9
O=c1nc(Nc2cccc(Cl)c2)oc2cc(Cl)oc(=O)c12 | · | -1 | · | -4% | 1.5
C=CCOc1c(Br)cc(CNCCCN2CCOCC2)cc1OC | · | 8 | · | · | -0.7
CC(=O)Cc1nsc(NC(=O)c2csc3c2CCCC3)n1 | 10 | -2 | -45 | -8% | -0.3
Cn1cccc1C(=O)NC1CCCCC1 | · | -10 | · | · | -2.4
NC(=O)COC(=O)CNC(=O)c1sc2ccccc2c1Cl | 4 | -2 | · | 2% | -0.3
COc1cc2c(cc1OC)-c1cc(OCCN3CCOCC3)nc(=O)n1CC2 | 3 | 4 | -57 | -14% | -11
Cc1ccc(C(=O)COC(=O)c2cccc(N3C(=O)c4c(C)nc5ccccc5c4C3=O)c2)cc1C | 2 | -3 | -2 | -8% | 0.4
CCC1OC2(C)OC(=N)C1(C#N)C(C#N)(C#N)C2c1ccccc1 (stereo not drawn) | 1 | -11 | -16 | -6% | -86
CCN(CC)S(=O)(=O)c1ccc(OC)c(NC(=O)c2ccc(OC)c([N+](=O)[O-])c2)c1 | · | -6 | 3 | 8% | -2.3
COC(=O)c1ccc(C(=O)OC)c(NC(=O)CCc2ccc(C)o2)c1 | 3 | -4 | -10 | -7% | 7.6
Cc1cc(NS(=O)(=O)c2ccc(NC(=O)CCN3C(=O)c4ccccc4C3=O)cc2)no1 | 2 | -18 | -22 | -14% | -3.8
CN(c1ccc(C(=O)NCc2ccccn2)cc1)S(C)(=O)=O | 1 | -2 | -11 | -4% | 3.0
COc1cc(CC(=O)Nc2ccc3c(c2)CCC3)cc(OC)c1OC | 3 | -3 | -24 | -2% | -1.0
CC(C)C(=O)n1nc(-c2cccnc2)nc1NCc1cccs1 | 17 | -14 | · | 3% | -0.3
O=S(=O)(O)c1nc2ccccc2n1CCOc1ccccc1 | 10 | -6 | -48 | 0% | 0.0
CC(C)C1Oc2ccccc2C(=O)N(CC(=O)c2ccc3c(c2)OCCO3)C1=O (stereo not drawn) | · | 12 | · | · | -0.6
Cn1ncc(Cl)c1C(=O)NCc1cc(C(C)(C)C)n[nH]1 | 4 | -2 | -17 | 7% | 3.0
CCCn1c(=N)n(CCOc2ccc(OC)cc2)c2ccccc21 | -11 | -4 | -4 | · | -1.9
CCOc1ccc(N(CC(=O)Nc2ccc(C)c(F)c2)C2=NC3CS(=O)(=O)CC3S2)cc1 (stereo not drawn) | · | 6 | · | · | -1.6
SMILES | Arbovirus inh | Mtb bLac sens | YopH PTP inh | Mtb H37Rv | RecA splice inh | others
O=C(O)c1ccc(S(=O)(=O)/N=C2\C=C(Nc3ccccc3F)C(=O)c3ccccc32)cc1 | · | 96 | · | · | 94*
CCN1C(=O)[C@H]2[C@@H](c3ccc(-c4ccc(Cl)c(Cl)c4)cc3)N[C@@](CC(C)C)(C(=O)OC)[C@H]2C1=O | · | -6 | · | · | 19
CCN(CC)c1nc(N)c2c(N)nc3c(c2c1C#N)CC(c1ccccc1)O3 (stereo not drawn) | -13 | 0 | -12 | -3% | -5.6
CCOC(=O)N1CCN(C(=O)c2ccc3c(c2)sc2nc(-c4ccc(OC)cc4)cn23)CC1 | 3 | 1 | -9 | 2% | -1.9
C#CCOc1ccc2ccccc2c1/C=C(/C#N)c1ccc(C(=O)O)cc1 | · | 6 | · | · | 1.8
Nc1c(C(=O)NCc2ccccc2)sc2nc(N3CCOCC3)c3c(c12)CCCC3 | -25 | 2 | -8 | 10% | -7.7
COc1ccc(N2C(N)=C(C#N)C(c3cccnc3)C3=C2CC(C)(C)CC3=O)cc1 (stereo not drawn) | 0 | 0 | -22 | -1% | -1.8
O=C(CSc1nnc(-c2ccco2)n1-c1ccccc1)NCCc1ccccc1 | 8 | -10 | -41 | -10% | -3.1
O=C(/C=C/c1ccccc1)Nc1cccnc1 | · | 0 | · | · | 2.4
O=C(NC(c1ccccc1)c1ccccc1)c1ccc(CO)cc1 | · | 8 | · | · | 3.6
O=C1CCCc2nc3nc4ccccc4n3cc21 | 7 | · | 6 | -10% | ·
COc1ccc(-c2csc(NC(=O)/C(N=Nc3ccccc3)=C(\C)O)n2)cc1 | 0 | -1 | · | 1% | 2.3
O=C(O)c1ccccc1C(=O)NCC(O)COCC1CC=CCC1 (stereo not drawn) | 9 | 5 | -36 | 1% | 1.2 | Arbovirus inh repeat=0
Cc1ccc(S(=O)(=O)NNC(=O)c2cnn(-c3ccc(Cl)cc3)c2C(F)(F)F)cc1 | · | 0 | · | -3% | 2.5
Cc1nc2ccc(NS(=O)(=O)c3ccc(C)c(C)c3)cc2s1 | -4 | -5 | -19 | 10% | 4.6
O=C(Cn1ccc2ccccc21)Nc1ccc2c(c1)OCO2 | -6 | -1 | · | 9% | 1.2
Nc1ccc(C(=O)N/N=C/c2cn(Cc3ccccc3F)c3ccccc23)cc1 | · | -2 | · | · | 0.6
O=C(Nc1cccnc1)c1cccc(S(=O)(=O)N2CCCCC2)c1 | -3 | -1 | · | -8% | 0.8
CC1=C(C#N)CCC(=O)N1Cc1ccc(C)cc1 | 2 | -6 | -41 | -4% | 1.2
CCOc1ccc(NS(=O)(=O)c2ccc3c(c2)oc(=O)n3C)cc1 | -2 | 5 | -50 | -12% | 0.3
O=C(Cc1ccc(F)cc1)NCCc1ccc(F)cc1 | 0 | -11 | -18 | · | -0.3
COc1ccc(CC(=O)OCN2C(=O)c3ccccc3C2=O)cc1 | -5 | 1 | 0 | 2% | 2.6
COc1cc(C(=O)OCC(=O)NC(N)=O)cc(CN2C(=O)c3ccccc3C2=O)c1OC | · | -3 | · | · | 0.5
O=C(CSc1ccc([N+](=O)[O-])cn1)Nc1ccc2[nH]c(=O)[nH]c2c1 | · | 1 | · | · | -0.8
O=C(CCSc1nc(-c2ccco2)cc(C(F)(F)F)n1)NCc1cccs1 | -6 | 3 | 7 | 4% | 1.3

Structural class: the compounds so far with a CF3 group (2)
SMILES | Arbovirus inh | Mtb bLac sens | YopH PTP inh | Mtb H37Rv | RecA splice inh | others
Cc1ccc(S(=O)(=O)NNC(=O)c2cnn(-c3ccc(Cl)cc3)c2C(F)(F)F)cc1 | · | 0 | · | -3% | 2.5
O=C(CCSc1nc(-c2ccco2)cc(C(F)(F)F)n1)NCc1cccs1 | -6 | 3 | 7 | 4% | 1.3

Carrying on:
SMILES | Arbovirus inh | Mtb bLac sens | YopH PTP inh | Mtb H37Rv | RecA splice inh | others
CC(C)c1cc(C(=O)O)on1 | -1 | 3 | -35 | 1% | -0.4
O=c1oc(-c2ccco2)nc2sc3c(c12)CCCC3 | 9 | 35 | -1 | 1% | 5.8
CCN(CC)c1cc(CS(=O)c2ccccc2)nc(-c2ccccc2)n1 (stereo not drawn) | · | 4 | -9 | 6% | ·
COc1c(C)cc(C(=O)C2CCCN(Cc3cnc(C)s3)C2)cc1C (stereo not drawn) | -2 | 2 | · | 5% | -1.3
S=C(NCCCN1CCOCC1)Nc1cccc(-c2nnc3n2CCCCC3)c1 | 5 | -8 | · | 3% | 1.3
CC(=O)NC(=S)Nc1ccc(NC(=S)NC(=O)/C=C/c2ccco2)cc1 | · | 0 | · | · | -2.1
CN(C)/C=N/c1cc(=O)[nH]c(=O)n1Cc1ccccc1 | -7 | -1 | -10 | -18% | 0.4
COc1ccccc1NC(=O)c1cnc2n(c1=O)CCS2 | -2 | 32 | -18 | 7% | 2.8
CCOC(=O)N1CCN(C2CCCN(C(=O)c3ccccc3SC)C2)CC1 (stereo not drawn) | · | -5 | · | · | 1.8
C=CCn1c(O)c(C(CC)=NC(C)c2ccccc2)c(=O)[nH]c1=O (stereo not drawn) | -17 | -7 | -2 | -2% | 1.8
O=C(CSc1nc(-c2ccccc2)c(-c2ccccc2)[nH]1)NCC1CCCO1 (stereo not drawn) | -6 | 4 | · | -4% | -4.8
CC(C)N1CCC(N2CCN(Cc3cccnc3)CC2CCO)CC1 (stereo not drawn) | 8 | -8 | · | 2% | 0.3
NC(=O)C(=O)NN=C1CCC(c2ccccc2)CC1 (stereo not drawn) | -6 | 1 | -13 | -5% | -2.2
COc1ccc2[nH]cc(C(=O)CCl)c2c1 | · | · | · | -5% | 5.5
CCn1c(SCC(=O)NCC2CCCO2)nnc1-c1c[nH]c2ccccc12 (stereo not drawn) | 1 | -32 | -36 | -10% | 0.0
COc1ccc(/C=N/Nc2ccc(C(=O)O)cc2)cc1OC | · | 5 | · | -7% | -1.1
O=C(CS(=O)c1ccc(F)cc1)N1CCOCC1 (stereo not drawn) | · | -1 | · | · | 0.1
Cc1nn(-c2ccccc2)c(C)c1NC(=O)COC(=O)Cc1cccc(C(F)(F)F)c1 | · | 3 | · | · | -4.0
CC1CC2(C)Oc3ccccc3CC2C(C)C1CNCCCN(C)C (stereo not drawn) | -32 | -12 | · | 5% | -2.3
CCN1CCN(CCCN(Cc2ccco2)C(=S)Nc2ccccc2Cl)CC1 | 2 | -2 | · | 3% | 1.2
COc1cc(C(=O)Nc2cccc(S(=O)(=O)N3CCCC3)c2)c([N+](=O)[O-])cc1OC | · | -10 | · | · | 0.0
CC(C)CCOC(=O)C1[C@H]2C(=O)N(Cc3cccs3)C[C@]23C=C[C@H]1O3 (stereo partly drawn) | 7 | -10 | -47 | -3% | -4.3
CC(=O)NC1CC2CCCC(C1)N2S(=O)(=O)c1ccccc1 (stereo not drawn) | 11 | -6 | -8 | -4% | -2.5
COc1ccc(NC(=O)N2CCC(C(=O)c3ccc4c(c3)OCCO4)CC2)cc1 | · | 0 | · | · | 0.6
COc1cccc2[nH]c(C(=O)NCC3CCCO3)cc12 (stereo not drawn) | · | -4 | · | · | 0.9

The final two compounds of the part above lead into the next:
SMILES | Arbovirus inh | Mtb bLac sens | YopH PTP inh | Mtb H37Rv | RecA splice inh | others
COc1ccc(NC(=O)N2CCC(C(=O)c3ccc4c(c3)OCCO4)CC2)cc1 | · | 0 | · | · | 0.6
COc1cccc2[nH]c(C(=O)NCC3CCCO3)cc12 (stereo not drawn) | · | -4 | · | · | 0.9
COC(=O)c1ccc(SCC(=O)N2CCC(C)CC2)c([N+](=O)[O-])c1 | 0 | -2 | -16 | 3% | 3.5
Cc1ccc(-n2c(N)c(C(=O)N3CCOCC3)sc2=S)cc1 | 4 | · | -12 | 4% | -0.8
CC(C)C(NC(=O)c1ccccc1)C(=O)N/N=C\c1ccco1 (stereo not drawn) | -1 | -2 | -2 | -2% | -5.6
Cc1cc2oc(C(=O)NCCc3ccc(S(N)(=O)=O)cc3)c(C)c2cc1C | 10 | -7 | · | -6% | -0.5
Cc1cc(OCc2ccc(C(=O)NN=C3CCCC3)cc2)ccc1Cl | -23 | 57 | -12 | 4% | 8.5
CC(C)(C)c1cc(NC(=O)c2c(F)cccc2Cl)n(-c2ccccc2)n1 | · | 0 | · | · | 0.7

Fetched by structure from above:
SMILES | Arbovirus inh | Mtb bLac sens | YopH PTP inh | Mtb H37Rv | RecA splice inh | others
COC(=O)c1ccc(SCC(=O)N2CCC(C)CC2)c([N+](=O)[O-])c1 | 0 | -2 | -16 | 3% | 3.5
Cc1cc2oc(C(=O)NCCc3ccc(S(N)(=O)=O)cc3)c(C)c2cc1C | 10 | -7 | · | -6% | -0.5
Cc1cc(OCc2ccc(C(=O)NN=C3CCCC3)cc2)ccc1Cl | -23 | 57 | -12 | 4% | 8.5
Cc1ccc(-n2c(N)c(C(=O)N3CCOCC3)sc2=S)cc1 | 4 | · | -12 | 4% | -0.8

Three successive entries already listed, for reference:
SMILES | Arbovirus inh | Mtb bLac sens | YopH PTP inh | Mtb H37Rv | RecA splice inh | others
Cc1cc2oc(C(=O)NCCc3ccc(S(N)(=O)=O)cc3)c(C)c2cc1C | 10 | -7 | · | -6% | -0.5
Cc1cc(OCc2ccc(C(=O)NN=C3CCCC3)cc2)ccc1Cl | -23 | 57 | -12 | 4% | 8.5
CC(C)(C)c1cc(NC(=O)c2c(F)cccc2Cl)n(-c2ccccc2)n1 | · | 0 | · | · | 0.7
